LASV entry inh: qHTS for Inhibitors of binding or entry into cells for Lassa Virus; Lassa virus pseudotyped entry inhibition, cell-based qHTS; control for the full effect not named in the record; many of its hits are not listed in these tables; Potency, µM (titrated, usually from 49.2 µM), for the others: top-dose activity change, negative = inhibition, most hits filed as inhibitors; 18,000 compounds, 4.1% hits; AID 720533, 2013; active = well fitted inhibition curve with a large enough effect; inconclusive = small, poorly fitted or top-dose-only effect; inactive = no such curve, though single readings can be large or run the other way; tested in HEK293 cells; note: luciferase read-out
Marburg entry: qHTS for Inhibitors of binding or entry into cells for Marburg Virus. Marburg virus pseudotype entry/binding inhibition, cell-based; control for the full effect not named in the record; many of its hits are not listed in these tables. Potency, µM (top dose mostly 49.2 µM), inactives show at the highest dose activity change, negative = inhibition, hits mostly inhibitors. 18,000 compounds, 6.5% hits; active means well fitted inhibition curve with a large enough effect; inconclusive means small, poorly fitted or top-dose-only effect; inactive means no such curve, though single readings can be large or run the other way; tested in HEK293 cells; note: luciferase read-out
* marks the source's active call; other numbers are inactive results; ? = inconclusive; nt = no result given; & = joins results of further samples; [ ] = another dose, or the depositor's remark. % is set by controls: 0 for no effect and ±100 for the full control effect; potency is the fitted concentration of half-maximal effect.

SMILES | LASV entry inh | Marburg entry
CCOC(=O)C1Oc2ccccc2C(c2ccoc2)=C1C(=O)OC (stereo not given) | -7% | 0%
CC(C)(c1ccc(OC[C@@H]2CO2)cc1)c1ccc(OC[C@H]2CO2)cc1 | ? | ?
COC(=O)[C@@H]1CCCN1Cc1ccc2c(c1)CN(Cc1ccc3c(c1)CCO3)CCO2 | 1% | -14%
COc1ccc(C(=O)Nc2sc3c(c2C(N)=O)CCCC3)cc1OC | 18% | 40%[activator]
CCN(CC)CCNC(=O)c1cnn(-c2ncc3c(n2)-c2ccc(OC)cc2CC3)c1C | ? | 13µM*
CC(C)(C)OC(=O)NCCCC1=CC2=CC(=O)C(C)(OC(=O)c3cnc4ccccc4n3)C(=O)C2=CO1 (stereo not given) | -12% | 1%
CC(Nc1oc(-c2ccccc2)nc1-c1ccccc1)c1ccccc1 (stereo not given) | -3% | -1%
C[C@@H]1C[C@H]2[C@@H]3C[C@H](F)C4=CC(=O)C=C[C@]4(C)[C@@]3(Cl)[C@@H](O)C[C@]2(C)[C@H]1C(=O)COC(=O)C(C)(C)C | 0%[17.8 µM] | -5%
COC(=O)c1cc2c(s1)-c1ccccc1OC2 | 2% | 33%[activator]
N#Cc1ccc2c(c1)C[C@]1(c3ccsc3)OC3=C(C(=O)OC4(CCCCC4)C3)[C@H]2O1 | -4%[8.59 µM] | ?
CC1=C[C@@H](COCc2ccccc2)O[C@@]2(C1)C(=O)N(CC1CC1)c1ccccc12 | -24%[8.59 µM] | 1%[8.59 µM]
COc1cc(=O)n2c(c1C(=O)N(C)Cc1nonc1C)CCN(Cc1cc(C)c(C)cc1C)CC2 | -16% | 6%
CC(C)CON=C1C[C@@H](O)[C@@H](O)[C@@H]2[C@H]3C(=O)N(Cc4ccccc4)C(=O)[C@@H]3CC[C@@H]12 | -10%[8.59 µM] | 1%[8.59 µM]
C=COC[C@@H]1CN2[C@H](c3ccc(Br)cc3)[C@H](C)CC[C@H]2C(=O)O1 | 11%[8.59 µM] | 31%[activator][8.59 µM]
COc1ccc(C2OC3C(CO)OC(n4cnc5c(=O)[nH]c(N)nc54)C3O2)cc1 (stereo not given) | 4% | -9%
CCOC(=O)[C@H](CCc1ccccc1)N[C@@H](C)C(=O)N1[C@H](C(=O)O)C[C@@H]2CCC[C@@H]21 | -7%[17.8 µM] | 13%
Cc1ncc[nH]1 | -10% | -5%
Nc1ccc([N+](=O)[O-])cc1O | ? | 17%[107 µM]
CCC1(C2CCN(Cc3cccnc3)CC2)NC(=O)N(CC2COc3ccccc3O2)C1=O (stereo not given) | -1% | -6%
CCCCc1cc2c(cn1)=C(OC(=O)CCC(=O)OC)C(C)(OC(=O)CC)C(=O)C=2 (stereo not given) | -29%[8.59 µM] | 21%[8.59 µM]
CNC1[C@@H](O)C(OC2C(N)C[C@H](N)[C@@H](O[C@@H]3OC(C(C)O)C(O)C(O)C3N)C2O)OC[C@]1(C)O (stereo not given in full) | 1% | 7%
O=[N+]([O-])c1ccc(-c2nc(-c3ccc(F)cc3)c(-c3ccncc3)[nH]2)cc1 | -16% | 11µM*
CN1[C@@H]2CCC[C@H]1CC(=O)C2 | 11%[17.8 µM] | -19%[17.8 µM]
CCS(=O)(=O)c1ccc(OC)c(Nc2ncc(-c3cccc(F)c3)o2)c1 | ? | ?
Cc1cnc(-n2ncc(C(=O)NCc3cccnc3)c2C)nc1-c1ccc(F)cc1 | 1% | 0%

Profiles as entered above:
`CCS(=O)(=O)c1ccc(OC)c(Nc2ncc(-c3cccc(F)c3)o2)c1` in the list: LASV entry inh = ?; Marburg entry = ?
`CCN(CC)CCNC(=O)c1cnn(-c2ncc3c(n2)-c2ccc(OC)cc2CC3)c1C` in the list: LASV entry inh = ?; Marburg entry = 13µM*

Among those listed so far, 3 contain an NH in an aromatic ring:
SMILES | LASV entry inh | Marburg entry
COc1ccc(C2OC3C(CO)OC(n4cnc5c(=O)[nH]c(N)nc54)C3O2)cc1 (stereo not given) | 4% | -9%
Cc1ncc[nH]1 | -10% | -5%
O=[N+]([O-])c1ccc(-c2nc(-c3ccc(F)cc3)c(-c3ccncc3)[nH]2)cc1 | -16% | 11µM*

Carrying on:
SMILES | LASV entry inh | Marburg entry
CC(C)C1C(=O)N(Cc2cn(CC3CCCCC3)nn2)CCS(=O)(=O)N1Cc1ccc(-c2ccccc2)cc1 (stereo not given) | nt | ?
N[C@H](Cc1c[nH]c2ccccc12)C(=O)O | ? | ?
COP(=S)(OC)Oc1cc(Cl)c(Cl)cc1Cl | -11%&-6% | 7%&17%
C=C1[C@@H](C)[C@H]2[C@H](Cc3ccccc3)NC(=O)[C@]23OC(=O)/C=C/[C@H](O)CCC[C@@H](C)C/C=C/[C@H]3[C@@H]1O | ? | ?
CS(=O)(=O)Nc1c(O)ccc2c1CCCC2C1=NCCN1 (stereo not given) | 0% | -3%
CC(=O)[C@H]1CC[C@H]2C3CC[C@H]4C[C@](C)(O)CC[C@]4(C)C3CC[C@]12C (stereo not given in full) | -8% | 10%
CCN1C(=O)N[C@H](c2ccc(Br)cc2)C(C(C)=O)=C1C | -3% | -17%
CCCCN(CCCC)C(=S)[S-].CCCCN(CCCC)C(=S)[S-].[Zn+2] | 11µM* | 6.3µM*
C[C@@H](O)CCC[C@H](O)/C=C/[C@H]1[C@H](O)CC(=O)[C@@H]1C/C=C\CCCC(=O)O | 2% | -1%
CCCC=Cc1ccc(CN2C(C)C(=O)N(Cc3cn(CCOCOC)nn3)CCS2(=O)=O)cc1 (stereo not given) | nt | -15%
C=CCc1ccc(O)c(OC)c1 | 7%&-3%&-5% | -6%&10%&9%
CCCCc1nc2c(c3c1C[C@H](C)OC3)CN(C(=O)c1cc(I)ccc1F)CC2 | -3%[8.59 µM] | ?
COc1ccc(-c2coc3cc(O)ccc3c2=O)c(O)c1O | -6% | ?
Nc1ncnc2c1ncn2[C@@H]1O[C@H](COP(=O)(O)OP(=O)(O)OC[C@H]2OC(O)[C@H](O)[C@@H]2O)[C@@H](O)[C@H]1O (stereo not given in full) | -10% | 12%
CSCC[C@H](NC(=O)[C@H](CO)NC(=O)[C@H](Cc1ccc(O)cc1)NC(=O)[C@@H](N)CO)C(=O)N[C@@H](CCC(=O)O)C(=O)N[C@@H](Cc1cnc[nH]1)C(=O)N[C@@H](Cc1ccccc1)C(=O)N[C@@H](CCCNC(=N)N)C(=O)N[C@@H](Cc1c[nH]c2ccccc12)C(=O)NCC(=O)N[C@@H](CCCCN)C(=O)N1CCC[C@H]1C(=O)N[C@H](C(=O)NCC(=O)N[C@@H](CCCCN)C(=O)N[C@@H](CCCCN)C(=O)N[C@@H](CCCNC(=N)N)C(=O)N[C@@H](CCCNC(=N)N)C(=O)N1CCC[C@H]1C(=O)N[C@H](C(=O)N[C@@H](CCCCN)C(=O)N[C@H](C(=O)N[C@@H](Cc1ccc(O)cc1)C(=O)N1CCC[C@H]1C(=O)N[C@@H](CC(N)=O)C(=O)NCC(=O)N[C@@H](C)C(=O)N[C@@H](CCC(=O)O)C(=O)N[C@@H](CC(=O)O)C(=O)N[C@@H](CCC(=O)O)C(=O)N[C@@H](CO)C(=O)N[C@@H](C)C(=O)N[C@@H](CCC(=O)O)C(=O)N[C@@H](C)C(=O)N[C@@H](Cc1ccccc1)C(=O)N1CCC[C@H]1C(=O)N[C@@H](CC(C)C)C(=O)N[C@@H](CCC(=O)O)C(=O)N[C@@H](Cc1ccccc1)C(=O)O)C(C)C)C(C)C)C(C)C | 0% | 3%
O=C(c1cscn1)N1CCOc2ccc(CN3CCC(Oc4cccnc4)CC3)cc2C1 | -12% | -15%
COc1cc2c(cc1OC)C(c1c[nH]c3ccccc13)NCC2 (stereo not given) | -5% | ?
COc1ccc(-c2c(O)c3c(OC)c4c(cc3oc2=O)OC(C)(C)C=C4)cc1 | 0% | 7%
Cc1c(C(=O)c2ccc3ccccc3c2)c2cccc3c2n1[C@H](CN1CCOCC1)CO3 | -28% | 2%
NCC1OC(OC2C(N)CC(N)[C@@H](O)[C@@H]2OC2O[C@H](CO)[C@@H](O[C@@H]3OC(CN)C(O)C(O)C3N)C2O)C(N)C(O)C1O (stereo not given in full) | 16% | 7%
Cc1nc(C)c(C(=O)NCc2nc(-c3cccc(NC(=O)c4ccccn4)c3)oc2C)s1 | ? | 3%
CN(C)[C@@H]1C(=O)C(C(N)=O)=C(O)[C@@]2(O)C(=O)C3=C(O)c4c(O)ccc(Cl)c4[C@@H](O)[C@H]3C[C@@H]12 | 3%[17.8 µM] | 12%
O=C(c1ccccc1C(F)(F)F)N1CCOc2c(cc(-c3nc4ccccc4s3)cc2OC2CCOC2)C1 (stereo not given) | -4% | -1%
COC(=O)C(C(=O)OC)[C@@H](NC(=O)OCc1ccccc1)c1ccccc1 | -19% | 0%
CN(C)c1nc(CN2CCCCC2c2cccnc2)nc2ccccc12 (stereo not given) | -11% | 3%

Some of these compounds in order of SMILES length, smallest number first:
SMILES | LASV entry inh | Marburg entry
N[C@H](Cc1c[nH]c2ccccc12)C(=O)O | ? | ?
CS(=O)(=O)Nc1c(O)ccc2c1CCCC2C1=NCCN1 (stereo not given) | 0% | -3%
Cc1nc(C)c(C(=O)NCc2nc(-c3cccc(NC(=O)c4ccccn4)c3)oc2C)s1 | ? | 3%
NCC1OC(OC2C(N)CC(N)[C@@H](O)[C@@H]2OC2O[C@H](CO)[C@@H](O[C@@H]3OC(CN)C(O)C(O)C3N)C2O)C(N)C(O)C1O (stereo not given in full) | 16% | 7%

Next section
SMILES | LASV entry inh | Marburg entry
C#CCCCON=C1C[C@@H](O)[C@H](O)[C@H]2[C@@H]3C(=O)N(C[C@@H]4CCCO4)C(=O)[C@@H]3CC[C@H]12 | ? | 4%[8.59 µM]
COc1ccc(CN(C2CCCC2)S(=O)(=O)c2ccccc2Br)cc1 | -23% | ?
CC(C)C(NC(=O)c1ccoc1)c1nnc2n1CCN(Cc1ccc3c(c1)Cc1ccccc1-3)CC2 (stereo not given) | -5% | 6%
COc1ccc(C2=CC3=CC(=O)C(C)(O)C(=O)C3=CO2)cc1 (stereo not given) | 0% | 14%
COC(=O)C1=C(C)N(Cc2ccccc2)C(=NCC2CC2)NC1c1ccc(Br)cc1 (stereo not given) | 24%[8.59 µM] | -10%[8.59 µM]
CC[C@H](C)[C@H](NC(=O)[C@H](C)NC(=O)[C@H](Cc1cnc[nH]1)NC(=O)[C@@H]1CCCN1C(=O)CNC(=O)[C@H](CC(C)C)NC(=O)[C@H](CC(C)C)NC(=O)[C@H](Cc1ccc(O)cc1)NC(=O)CNC(=O)[C@H](C)NC(=O)[C@H](CO)NC(=O)[C@H](CC(N)=O)NC(=O)[C@H](CC(C)C)NC(=O)[C@@H](NC(=O)[C@H](Cc1c[nH]c2ccccc12)NC(=O)CN)[C@@H](C)O)C(=O)O | -10% | 13%
C#CCCCON=C1C[C@@H](O)[C@H](O)[C@H]2[C@@H]3C(=O)N(C4CCCCC4)C(=O)[C@@H]3CC[C@@H]12 | 19%[8.59 µM] | 43%[8.59 µM]
COc1cccc(-c2c[nH]c3c(NN=Cc4ccncc4)ncnc23)c1 | -65% | ?
COc1ccc(C(O)C2=CCCC2=O)cc1 (stereo not given) | 3% | 26%
CC(C)CCCC(C)CCCC(C)CCCCC(C)CCCC(C)CCCC(C)C (stereo not given) | -4% | 2%
O=C(c1ccco1)N1CCN(C2CN(C3CCCC3)S(=O)(=O)C2)CC1 (stereo not given) | 13% | 36%[activator]
C=C1O[C@@](CO)(n2cnc3c(N)ncnc32)[C@H](O)[C@@H]1O | -6%&6% | -1%&18%
CCCCC1=CC2=C(c3ccco3)C(=O)C(C)(OC(=O)c3ccc(OC)cc3)C(=O)C2=CN1CCCOC(C)C (stereo not given) | 4%[8.59 µM] | -7%[8.59 µM]
CCN(CC)CCCN=C1NC(c2cccc(F)c2)C(C(=O)OC)=C(C)N1Cc1ccccc1 (stereo not given) | -26%[8.59 µM] | ?
COC(=O)c1ccc(CN2C[C@H](Sc3ccccn3)C[C@H]2C(=O)N(C)C)cc1 | ? | 11%
COCOCCn1cc(CN2CCS(=O)(=O)N(Cc3ccc(-c4ccncc4)cc3)C(CC(C)C)C2=O)nn1 (stereo not given) | -10% | ?
O=C1OCCN1C(=O)[C@H]1[C@H](c2ccc(Cl)cc2)C(c2ccc(F)cc2)=NN1c1ccc(Br)cc1 | -26% | ?
Cc1ncc2c(c1CNC(=O)c1ccccc1F)CCN(C(=O)c1csc(-c3cccs3)n1)C2 | ? | ?
C[C@H](N)C(=O)c1ccccc1 | -1% | -11%
COc1ccc(C2CC(c3c(O)cc(C)oc3=O)=NCCS2)c(OC)c1 (stereo not given) | -14% | ?
O=S1(=O)CC(N2CCN(CCO)CC2)CN1C1CCCC1 (stereo not given) | -11% | 21%
COC(=O)/C=C\c1cc(O)ccc1O | 25µM* | 10µM*
COc1cc2c(cc1OC)[C@@H]1O[C@](CCCCN3C(=O)c4ccccc4C3=O)(C2)OC2=C1C(=O)CCC2 | nt | -17%[8.59 µM]
CCCCC/C=C\C[C@@H](/C=C/C=C\C/C=C\CCCC(=O)O)OO | ? | 15%&14%
O=C(N[C@@H]1CN2CCC1CC2)c1cc(Cl)cc2[nH]cnc12 | -9% | -5%
C=CCN1C(=O)[C@@]2(CC(C)=C[C@@H](COc3ccccc3)O2)c2ccccc21 | 7%[8.59 µM] | 2%[8.59 µM]
